2A StopGo: lowers the luciferase signal of an FMDV 2A StopGo reporter | AID 1159524 | Potency, µM (highest dose often 57.9 µM), inactives show at the top dose signal change, negative = less light | human cells with a luciferase reporter of 2A StopGo recoding; control for the full effect not named in the record | hit rate 1.2% among 410,000; active = well fitted falling curve with a large enough effect; inconclusive = small, poorly fitted or top-dose-only effect; inactive = no such curve, though single readings can be large or run the other way; tested in HEK293T cells; also: % is scaled to controls: 0 for no effect and ±100 for the full control effect; nearly all actives have a fitted effect of over 45% in size; luciferase light after 4 h
SARS PLP yeast: inhibitors of SARS-CoV papain-like protease in yeast; S. cerevisiae expressing SARS-CoV PLpro, growth rescue; control for the full effect not named in the record; Potency, µM (titrated, usually from 32.9 µM), inactives show at the highest dose activity, positive = growth rescue; hit rate 0.19% among 330,000; AID 485353; active means well fitted rising curve with a large enough effect; inconclusive means small, poorly fitted or top-dose-only effect; inactive means no such curve, though single readings can be large or run the other way; also: 0% is about no effect; nearly all actives have a fitted effect of over 55% in size; growth read by luminescence after 48 h
RE007 growth inh: less growth of the S. pombe RE007 Vpr strain. S. pombe RE007 Vpr strain, BacTiter-Glo ATP luminescence, 24 h; control for the full effect not named in the record. Potency, µM (top dose mostly 92.2 µM), inactives show at the top dose activity change, negative = less growth. hit rate 0.21% among 360,000; active = well fitted falling curve with a large enough effect; inconclusive = small, poorly fitted or top-dose-only effect; inactive = no such curve, though single readings can be large or run the other way;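 also: % is scaled to controls: 0 for no effect and ±100 for the full control effect; nearly all actives have a fitted effect of over 50% in size; the assay follows cell death caused by Vpr and the record does not say whether a fall means rescue or toxicity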
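Fission yeast RE007 carrying one integrated HIV-1 vpr copy, seeded at OD 0.01 in PMG+AL medium with 23 nL pinned compound. Grown 24 h at 30 degrees; viability read by BacTiter-Glo luminescence after 5 min.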
Starred values were filed as active, the others as inactive; u = inconclusive; [ ] = remark or other dose. Potency is read from the fitted curve at half-maximal effect. Some of the compounds tested (hit frequency here may not be typical).

SMILES | 2A StopGo | SARS PLP yeast | RE007 growth inh
COC(=O)[C@]1(C)N[C@H](CN(C)S(=O)(=O)c2ccc(OC(F)(F)F)cc2)[C@@H]2C(=O)N(C)C(=O)[C@@H]21 | -12% | 1% | 15%
CN(C)C1=NCCN1CCC1CCCCC1 | -19% | 0% | -13%
Cc1sc2ncnc(N3CCC(C(=O)Nc4ccc(F)cc4Cl)CC3)c2c1C | u | -1% | u
CCOC(=O)C1=CCC2c3c(c4ccccc4n3C)C(=O)C1N2C(=O)OC(C)(C)C (stereo not drawn) | 1% | -9% | 0%
Cc1c(C(=O)NCc2ccco2)oc2c(Cl)cccc12 | -13% | 2% | 4%
O=[N+]([O-])c1ccn(-c2nc(-c3cccs3)cc(C(F)(F)F)n2)n1 | -13% | -11% | -1%
O=S1(=O)c2ccc(Br)cc2N2CCC[C@H]2CN1Cc1ccccc1 | -22% | -15% | 7%
Cc1cc(C)[n+](CCCC[n+]2c(C)cc(C)cc2C)c(C)c1 | 8% | -4% | -6%
CN(C(=O)COC(=O)c1ccccc1OCc1ccc(F)cc1)C1CCS(=O)(=O)C1 (stereo not drawn) | -12% | 2% | -1%
c1ccc(-c2cnnc3ccccc23)cc1 | -26% | 2% | 1%
O=C(c1ccccc1NS(=O)(=O)c1ccc([N+](=O)[O-])cc1[N+](=O)[O-])N1O[C@@H]2C=C[C@H]1C2 | u | -19% | -25%
C[C@H](CO)N1C[C@H](C)[C@@H](CN(C)C(=O)NC2CCCCC2)Oc2ccc(NC(=O)c3ccncc3)cc2C1=O | -8% | 6% | 11%
O=C(NNc1nc2c(F)cccc2s1)c1ccccc1 | 8% | 0% | -5%
CC(O)c1nc2ccccc2n1CC(=O)Nc1ccc(F)cc1Cl (stereo not drawn) | 2% | 3% | -13%
CCCCN1CC(=O)N2[C@H]3c4ccccc4OC[C@@H]3[C@H](C(=O)OCC)[C@]2(C)C1=O | -5% | 2% | 7%
COc1ccc([C@H]2CC(=O)C=C(c3cccc4c3sc3ccccc34)C2)cc1OC | u | 6% | -7%
Cc1ccc(NC(=O)COC(=O)C2CCN(c3ccc(C(F)(F)F)cn3)CC2)cc1 | -2% | -14% | 18%
Cc1cccnc1NC(=O)C1COc2ccccc2O1 (stereo not drawn) | 6% | -4% | 18%
CCCc1cc(=O)[nH]c(SCC(=O)N2c3ccccc3CC2C)n1 (stereo not drawn) | -23% | 2% | 2%
Cc1noc(C)c1NC(=O)N(C)C[C@H]1Oc2c(NC(=O)C3CC3)cccc2C(=O)N([C@H](C)CO)C[C@@H]1C | -21% | 2% | 6%
COc1ccc(C2(c3ccc(OC)cc3)NC(=O)N(CC(=O)NC3CCS(=O)(=O)C3)C2=O)cc1 (stereo not drawn) | -18% | -1% | 3%
CN(Cc1nc2ccccc2c(=O)[nH]1)C(=O)c1cccc(S(=O)(=O)N2CCCC2)c1 | -15% | 0% | 7%
Cc1ccc(C)c(N2CCN(CCCNC(=O)Cn3cccc3C(=O)c3ccccc3)CC2)c1 | u | 1% | 1%
O=C(COc1cccc(Br)c1)Nc1ccc(N2CCOCC2)cc1N1CCOCC1 | -18% | -2% | 4%
COC(=O)[C@]1(C)N[C@H](CN(C)C(=O)Nc2ccc(Cl)cc2)[C@@H]2C(=O)N(Cc3ccccc3)C(=O)[C@@H]21 | -23% | -2% | 7%
Later entries:
SMILES | 2A StopGo | SARS PLP yeast | RE007 growth inh
COCCCNC(=O)COC(=O)c1ccc(-c2nc3ccccc3s2)s1 | 43%[activator] | 0% | -2%
CCC1(c2ccccc2)NC(=O)N(CC(=O)Nc2cccnc2Cl)C1=O (stereo not drawn) | -5% | -7% | -3%
CCCCNC(=O)[C@]1(C)CCC[C@@]2(C)C3CC[C@@]4(C)C[C@]3(CCC21)CC4=O (stereo partly drawn) | -28% | -4% | u
CCN(CC(=O)Nc1ccccc1C(F)(F)F)C(=O)Cc1ccc2c(c1)CCC2 | -14% | 1% | 2%
COc1ccc(S(=O)(=O)N2CCN(C)CC2c2ccccc2)cc1 (stereo not drawn) | -11% | -2% | -4%
CCOc1ccc(NC(=O)CN(C)C(=O)CN2C(=O)C3CCCCC3C2=O)cc1OCC (stereo not drawn) | -12% | 4% | 0%
CC[C@@]1(C(=O)OC)N[C@H](CN(C)C(=O)Nc2ccccc2)[C@@H]2C(=O)N(Cc3ccccc3)C(=O)[C@@H]21 | -20% | 3% | -6%
C[C@@H]1[C@H]2[C@@H](O[C@@H]3O[C@H](CO)[C@@H](O)[C@H](O)[C@H]3O)OC=C(C(=O)O)[C@H]2C[C@@H]1O | -23% | 3% | 9%
COc1ccccc1N1CC(C(=O)Nc2ccc(C)c(S(=O)(=O)N3CCOCC3)c2)CC1=O (stereo not drawn) | -23% | 0% | 0%
Nc1nc(N)nc(-c2cc(O)ccc2O)n1 | 38%[activator] | 0% | 5%
Cc1cc(C(=O)NNC(=O)c2cccs2)c(C)o1 | 11% | -1% | -4%
Cc1ccc(S(=O)(=O)CC(=O)Nc2ccc(S(=O)(=O)Nc3ccccn3)cc2)cc1 | 53%[activator] | 0% | -1%
O=C(NCc1ccccc1C(F)(F)F)c1cccc2c1C(=O)c1ccc(N3CCCCC3)cc1S2(=O)=O | 23% | 0% | 1%
CCOc1cc(C(=O)NCc2ccc(F)cc2)ccc1OCC(=O)N1CCCCC1 | 30%[activator] | 2%[6.58 µM] | 5%
CCN1CCN(C(c2cccnc2)c2c(NC(=O)c3ccco3)sc(C)c2C)CC1 (stereo not drawn) | -6% | -1%[6.58 µM] | -10%
CCOc1ccc(Oc2ccc(C(F)(F)F)cc2NC(=O)C2=COCCO2)cc1 | -25% | 0% | 8%
CN1C(=O)N(CC(=O)NCc2ccc(Cl)cc2Cl)C(=O)C12CCCCC2 | -26% | -1% | 5%
COc1ccc2c(c1)CCCC21NC(=O)N(CC(=O)N2CC(C)OC(C)C2)C1=O (stereo not drawn) | -5% | 5% | 21%
CC(=O)c1cccc(NC(=O)COC(=O)COc2ccccc2C)c1 | 42%[activator] | 0% | -3%
C/C(=N/NC(=O)CNC(=O)C1COc2ccccc2O1)c1cccc(O)c1 (stereo not drawn) | -1% | 2% | -8%
COc1ccc(C2Nc3ccccc3C(=O)N2C2CCCCC2)cc1 (stereo not drawn) | 17% | 0% | -9%
O=C(c1ccco1)N1CCN(C(=O)c2cc(=O)[nH]c3ccccc23)CC1 | 0% | -2% | 4%
CCOP(=O)(OCC)C(Nc1ccc(C)cc1)c1ccco1 (stereo not drawn) | -12% | -1% | 0%
COCCN=c1scc(-c2cccs2)n1/N=C(\C)c1ccco1 | 50%[activator] | -9% | -7%
O=C(NCCc1ccc(F)cc1)c1cccc2c1C(=O)c1ccc(N3CCC(Cc4ccccc4)CC3)cc1S2(=O)=O | u | -3% | 5%
(further entries)
SMILES | 2A StopGo | SARS PLP yeast | RE007 growth inh
C[C@H](NC(=O)c1ccccc1)C(=O)OCC(=O)c1c[nH]c2ccccc12 | 11% | -4% | 11%
Cc1ccc(-c2c(C#N)c(N)nc3c2CCCC3)o1 | -12% | 1% | 2%
Cc1ccc(NC(=O)c2ccccc2)cc1C | 30%[activator] | 3% | -6%
Cc1c(Cl)cnc(NC(=O)CSc2n[nH]c(N)n2)c1Cl | -1% | 6% | -3%
C[C@@H]1COC(=O)[C@@H](Cc2ccc(F)cc2)C/C=C\C[C@@H](CC(=O)N(CCO)Cc2ccccc2)C(=O)N1 | -24% | -10% | 0%
O=S(=O)(c1ccccc1)N1CCN=C1SCc1ccccc1Cl | u | -5% | 10%
CC(C)(Oc1ccc(Cl)cc1)C(=O)Nc1cccc(S(=O)(=O)NC2=NCCC2)c1 | 26% | -1% | 9%
Cc1cccc(C)c1-n1nnnc1SCC(=O)c1c(N)n(C2CC2)c(=O)[nH]c1=O | -20% | -2% | -3%
CN1CCC(N(C)C(=O)COc2ccc(S(=O)(=O)N3CCOCC3)cc2)CC1 | -11% | 5% | 18%
NC(=O)c1ccc(NC(=O)CSC(=O)c2ccccc2)cc1 | 9% | 0% | -2%
CCCc1cc(=O)[nH]c(SCC(=O)c2cc(C)n(CC3CCCO3)c2C)n1 (stereo not drawn) | -16% | -4% | 1%
CSCCC(NC(=O)COc1ccccc1)C(=O)N1CCCCCC1 (stereo not drawn) | 35%[activator] | 2% | -7%
C/C(N)=C(/C#N)C(=O)CSc1nn(-c2ccc(Cl)cc2)c(=S)s1 | 45%[activator] | -33% | 0%
CCOc1cc([N+](=O)[O-])cc2c1C(=O)Nc1ccccc1O2 | 0% | 0% | -11%
C[C@H](CO)N1C[C@H](C)[C@@H](CN(C)CC2CC2)Oc2c(NS(=O)(=O)c3ccc(F)cc3)cccc2C1=O | 39%[activator] | -2% | 2%
C=CCNC(=O)c1onc(CS(=O)(=O)c2cc(C)cc(C)c2)c1C(=O)NCC=C | -22% | 1% | -16%
Cc1[nH]nc(SCC(=O)NC2CCCC2)c1[N+](=O)[O-] | 28% | -1% | -14%
O=C(COc1ccc(Br)cc1)NNC(=O)c1ccc(-n2cncn2)c([N+](=O)[O-])c1 | 0% | 2% | 3%
Cc1ccc(NC(=O)C2CCCCC2)cc1C | 0% | 5% | -20%
CCCCCCSc1cc(-c2nc3cnccn3c2NCc2ccccc2)ccc1OC | 0% | 3% | 1%
O=C(Nc1cccc(Cl)c1)/C(=C\c1cccnc1)NC(=O)c1ccco1 | -3% | 1% | 3%
C=C(C)C(O)CC/C(C)=C/Cc1c(O)ccc(C(=O)/C=C/c2ccc(O)cc2)c1O (stereo not drawn) | u | -27% | u
CN(C)C1=NCCN1CCCC1CCCC1 | 6% | -10% | 1%
COc1ccc(Nc2nc(-c3ccccc3)c(C(=O)Nc3cccnc3)s2)cc1 | 15% | -3% | -4%
CCN(C(=O)CSc1ncnc2sccc12)c1c(N)n(Cc2ccccc2)c(=O)[nH]c1=O | -16% | 0% | 2%
Continued:
SMILES | 2A StopGo | SARS PLP yeast | RE007 growth inh
O=C(CCc1nc(-c2ccc(F)cc2)no1)Nc1cccc(C(=O)NC2CC2)c1 | 40µM* | 0% | -1%
COc1ccc2nc(C)cc(N3CCN(S(=O)(=O)c4ccccc4F)CC3)c2c1 | u | -15% | -14%
CCN(CC)S(=O)(=O)c1ccc(/C=C/C(=O)OCC(=O)NCc2cccs2)cc1 | -18% | -2% | -14%
CCSc1nnc(NC(=O)CCN2C(=O)C3CCCCC3C2=O)s1 (stereo not drawn) | 0% | -2% | 2%
Cc1cccc(NC(=O)COC(=O)CSc2ccccc2)c1C | -13% | -5% | -3%
COCCN(Cc1nnc(-c2cccs2)o1)C(=O)c1cccc(S(=O)(=O)N2CCOCC2)c1 | -8% | 11% | 6%
Cc1ccc(OC(C)C(=O)N(C)c2ccccc2)c([N+](=O)[O-])n1 (stereo not drawn) | 5% | -1% | -11%
CCN(CC(=O)Nc1ccccc1OC)C(=O)c1ccccc1Sc1ccccc1C#N | -2% | 7% | 7%
O=C(COc1ccc(Cl)cc1)NCc1nnc(SCC(=O)N2CCCC2)o1 | 1% | 0% | 7%
COc1cc(OC)cc(C(=O)NNC(=O)CN2C(=O)NC3(CCCC3)C2=O)c1 | -14% | -3% | 10%
COc1ccc(Cl)cc1C(=O)NNC(=O)c1n[nH]c2ccccc12 | 8% | 4% | 2%
CCN(C(=O)COn1nnc2ccc(S(=O)(=O)N(C)C)cc21)C1CCS(=O)(=O)C1 (stereo not drawn) | 2% | 3% | 3%
CC1CCCC(NC(=O)CSc2nncs2)C1C (stereo not drawn) | -9% | 0% | 20%
Cc1cc(NC(=O)CN2C(=O)NC(CC(C)C)C2=O)no1 (stereo not drawn) | -15% | 2% | 16%
C[C@H](CO)N1C[C@H](C)[C@@H](CN(C)S(=O)(=O)c2ccccc2)Oc2c(NS(=O)(=O)c3cccs3)cccc2C1=O | 12% | 1% | -6%

Retrieved one by one from the list above:
SMILES | 2A StopGo | SARS PLP yeast | RE007 growth inh
CCN(CC)S(=O)(=O)c1ccc(/C=C/C(=O)OCC(=O)NCc2cccs2)cc1 | -18% | -2% | -14%
COc1ccc2nc(C)cc(N3CCN(S(=O)(=O)c4ccccc4F)CC3)c2c1 | u | -15% | -14%
CC1CCCC(NC(=O)CSc2nncs2)C1C (stereo not drawn) | -9% | 0% | 20%
COc1cc(OC)cc(C(=O)NNC(=O)CN2C(=O)NC3(CCCC3)C2=O)c1 | -14% | -3% | 10%
CCSc1nnc(NC(=O)CCN2C(=O)C3CCCCC3C2=O)s1 (stereo not drawn) | 0% | -2% | 2%
C[C@H](CO)N1C[C@H](C)[C@@H](CN(C)S(=O)(=O)c2ccccc2)Oc2c(NS(=O)(=O)c3cccs3)cccc2C1=O | 12% | 1% | -6%
COc1ccc(Cl)cc1C(=O)NNC(=O)c1n[nH]c2ccccc12 | 8% | 4% | 2%

A section from further up, as a working copy:
SMILES | 2A StopGo | SARS PLP yeast | RE007 growth inh
Cc1cc(NC(=O)CN2C(=O)NC(CC(C)C)C2=O)no1 (stereo not drawn) | -15% | 2% | 16%
C[C@H](CO)N1C[C@H](C)[C@@H](CN(C)S(=O)(=O)c2ccccc2)Oc2c(NS(=O)(=O)c3cccs3)cccc2C1=O | 12% | 1% | -6%

Screening data (PubChem BioAssay)
